FGF22 binding = binders of human FGF22 protein, primary screen, FGF22 synaptogenesis inhibitor project, biophysical, thermal shift, single point. Fibroblast growth factor 22 (Homo sapiens), Q9HCT0. recombinant FGF22 thermal shift, SYPRO orange fluorescence; percent of sucrose octasulfate shift, DMSO zero. calls only at 9.99 µM. actives 1.5% (n = 340,000). AID 651658, 2012;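 active means melting point raised past a set limit in the mean and every replicate; three in four hits are not shown here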
Target sequence (Q9HCT0 whole entry, looked up): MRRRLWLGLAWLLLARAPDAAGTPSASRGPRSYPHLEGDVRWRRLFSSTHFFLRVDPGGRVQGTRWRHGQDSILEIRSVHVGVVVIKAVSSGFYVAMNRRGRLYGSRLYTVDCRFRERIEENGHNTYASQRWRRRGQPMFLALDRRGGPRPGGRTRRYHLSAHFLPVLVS
Calls only; i = inactive; + = active, no number. An excerpt (hit frequency here may not be typical).

SMILES | FGF22 binding
COc1ccc(S(=O)(=O)Nc2ccc3c(c2)CC(=O)N([C@H](C)CO)C[C@@H](C)[C@H](CN(C)Cc2ccc(C(=O)O)cc2)O3)cc1 | i
Cc1noc(C)c1NC(=O)N[C@@H]1CC[C@@H](CCNC(=O)C2CC2)O[C@@H]1CO | i
COc1ccc(-c2cnc3c(c2)C(=O)N([C@@H](C)CO)C[C@@H](C)[C@H](CN(C)C(=O)Cc2ccncc2)O3)cc1 | i
C[C@H](CO)N1C[C@H](C)[C@H](CN(C)Cc2ccc3c(c2)OCO3)Oc2c(NC(=O)C3CCOCC3)cccc2C1=O | i
CCCNC(=O)N1CC(=O)N2[C@H](CO)[C@@H](c3ccc(-c4cccc(C)c4)cc3)[C@@H]2C1 | +
C[C@@H]1CN([C@H](C)CO)C(=O)Cc2cc(NC(=O)Cc3ccccc3)ccc2O[C@@H]1CN(C)Cc1ccc(Oc2ccccc2)cc1 | i
CCCC(=O)Nc1ccc2c(c1)C(=O)N(C)C[C@@H](OC)[C@@H](C)CN(Cc1ccccc1F)[C@H](C)CO2 | i
C[C@@H]1CN([C@@H](C)CO)C(=O)c2cc(NC(=O)Cc3ccccc3)ccc2O[C@@H](C)CCCCO[C@H]1CN(C)C(=O)c1ccccc1 | i
O=C(C[C@@H]1C[C@@H]2c3cc(NC(=O)C4CCC4)ccc3O[C@@H]2[C@@H](CO)O1)NCc1ccc2c(c1)OCO2 | i
C[C@@H]1CN([C@@H](C)CO)C(=O)c2cc(NC(=O)Nc3ccccc3)ccc2O[C@@H]1CN(C)Cc1ccc(Oc2ccccc2)cc1 | i
COc1ccc2c3c(n(C)c2c1)[C@H](CO)N(Cc1ccccc1OC)CC31CN(CC2CC2)C1 | i
COc1ccc(S(=O)(=O)Nc2ccc3c(c2)CC(=O)N([C@H](C)CO)C[C@H](C)[C@H](CN(C)C(=O)NC(C)C)O3)cc1 | i
COc1ccc(NC(=O)Nc2ccc3c(c2)CC(=O)N([C@@H](C)CO)C[C@@H](C)[C@H](CN(C)Cc2ccc(C(=O)O)cc2)O3)cc1 | i
CCCNC(=O)N(C)C[C@@H]1Oc2cc(C3=CCCCC3)ccc2S(=O)(=O)N([C@@H](C)CO)C[C@@H]1C | i
CN1c2ccc(-c3ccccc3)cc2[C@H]2[C@H](CCN2C(=O)Nc2ccccc2F)[C@H]1CO | i
C[C@@H]1CN([C@@H](C)CO)C(=O)Cc2cc(NS(C)(=O)=O)ccc2O[C@@H]1CN(C)C(=O)NC1CCCCC1 | i
COc1ccc(NC(=O)Nc2ccc3c(c2)C(=O)N([C@H](C)CO)C[C@@H](C)[C@@H](CN(C)Cc2ccccc2)O3)cc1 | i
C[C@@H]1CN([C@@H](C)CO)S(=O)(=O)c2ccc(-c3ccccc3)cc2O[C@@H]1CN(C)C(=O)C1CCCCC1 | i
CN(C)C(=O)C[C@@H]1C=C[C@@H](NC(=O)c2ccc(F)cc2)[C@H](CO)O1 | i
CC(C)NC(=O)Nc1ccc2c(c1)C(=O)N([C@@H](C)CO)C[C@@H](C)[C@H](CN(C)C(=O)NC1CCCCC1)O2 | i
CC(C)NC(=O)N(C)C[C@H]1Oc2c(NC(=O)C3CCOCC3)cccc2C(=O)N([C@@H](C)CO)C[C@H]1C | i
C[C@H](O)C#Cc1cnc2c(c1)C(=O)N([C@@H](C)CO)C[C@@H](C)[C@@H](CN(C)C(=O)Cc1ccncc1)O2 | i
COc1cccc(NC(=O)N[C@H]2CC[C@@H](CC(=O)N3CCOCC3)O[C@H]2CO)c1 | i
C[C@@H]1CN([C@H](C)CO)C(=O)c2cc(NS(=O)(=O)c3cn(C)cn3)ccc2O[C@@H](C)CCCCO[C@@H]1CN(C)C(=O)CCC(F)(F)F | i
C[C@H](CO)N1C[C@H](C)[C@@H](CN(C)C(=O)c2ccccn2)Oc2ncc(C3=CCCCC3)cc2C1=O | i

(list continues)
SMILES | FGF22 binding
O=C(Nc1ccc(F)cc1)N[C@@H]1CC[C@@H](CC(=O)N2CCCCC2)O[C@H]1CO | i
Cc1ccc(S(=O)(=O)N(C)C[C@H]2Oc3c(NC(=O)Nc4c(C)noc4C)cccc3C(=O)N([C@@H](C)CO)C[C@@H]2C)cc1 | i
C/C=C/c1ccc2c(c1)O[C@@H](CN(C)Cc1ccncc1)[C@@H](C)CN([C@H](C)CO)S2(=O)=O | i
O=C(C[C@H]1CC[C@@H]2[C@H](COC[C@@H](O)CN2Cc2ccccc2F)O1)N1CCc2ccccc2C1 | i
C[C@@H]1CN([C@@H](C)CO)C(=O)c2cccc(NC(=O)C3CCCCC3)c2O[C@H]1CN(C)C(=O)Nc1ccc(F)cc1 | i
C[C@H](CO)N1C[C@H](C)[C@H](CN(C)S(=O)(=O)c2ccc(F)cc2)OCCCC[C@H](C)Oc2ccc(NS(=O)(=O)c3ccccc3)cc2C1=O | i
O=C(Nc1ccccc1)N[C@H]1CC[C@H](CCNS(=O)(=O)c2cccc(F)c2)O[C@H]1CO | i
C[C@@H]1CN([C@H](C)CO)C(=O)c2cccc(NS(=O)(=O)c3ccc(Cl)cc3)c2O[C@@H]1CN(C)Cc1ccc(-c2ccccc2)cc1 | i
CO[C@H]1CN(C)C(=O)c2cc(NC(=O)Nc3cccc(Cl)c3)ccc2OC[C@H](C)N(C)C[C@H]1C | i
COCC(=O)Nc1ccc2c(c1)C(=O)N(C)C[C@@H](OC)[C@@H](C)CN(Cc1cccnc1)[C@@H](C)CO2 | i
C[C@H](CO)N1C[C@H](C)[C@H](CN(C)C(=O)Nc2ccc(F)cc2)Oc2c(NC(=O)C3CCOCC3)cccc2C1=O | i
CC(C)CC#Cc1ccc2c(c1)O[C@@H](CN(C)C(=O)c1ccccn1)[C@@H](C)CN([C@H](C)CO)S2(=O)=O | i
CNC[C@H]1Oc2ccc(NS(=O)(=O)c3cn(C)cn3)cc2C(=O)N([C@@H](C)CO)C[C@H]1C | i
CO[C@@H]1CN(C)C(=O)c2cc(NC(C)=O)ccc2OC[C@H](C)N(C(=O)Cc2ccccn2)C[C@H]1C | i
Cc1cccc(S(=O)(=O)N2C[C@@H](O)COC[C@@H]3O[C@@H](CC(=O)NCCCN4CCOCC4)CC[C@H]32)c1 | i
O=C(C[C@H]1CC[C@H]2[C@@H](COC[C@@H](O)CN2Cc2cccc(-c3ccncc3)c2)O1)N1CCCCC1 | i
Cc1ccccc1CN(C)C[C@H]1OCc2cnnn2CCCC(=O)N([C@@H](C)CO)C[C@H]1C | i
COc1ccc(NC(=O)Nc2ccc3c(c2)CC(=O)N([C@H](C)CO)C[C@@H](C)[C@@H](CN(C)Cc2ccc(Oc4ccccc4)cc2)O3)cc1 | i
COc1cccc(S(=O)(=O)Nc2ccc3c(c2)[C@H]2C[C@@H](CC(=O)N[C@@H](C)c4ccccc4)O[C@H](CO)[C@H]2O3)c1 | i
C[C@H]1CN([C@@H](C)CO)S(=O)(=O)c2ccc(C#CC3(O)CCCC3)cc2O[C@H]1CN(C)C(=O)Nc1ccccc1 | i
CC(C)NC(=O)Nc1ccc2c(c1)C(=O)N([C@@H](C)CO)C[C@@H](C)[C@H](CN(C)Cc1ccc3c(c1)OCO3)OCCCC[C@H](C)O2 | i
C[C@@H]1CN([C@@H](C)CO)C(=O)c2cc(NS(C)(=O)=O)ccc2O[C@@H]1CN(C)S(=O)(=O)c1cccs1 | i
COc1cccc(S(=O)(=O)N(C)C[C@H]2Oc3cc(C#CCC(C)C)ccc3S(=O)(=O)N([C@@H](C)CO)C[C@H]2C)c1 | i
C[C@@H]1CN([C@H](C)CO)C(=O)Cc2cc(NC(=O)Cn3cnnn3)ccc2O[C@H]1CN(C)C(=O)Nc1ccc(C(F)(F)F)cc1 | i
CNC[C@H]1Oc2ccc(N(C)C)cc2CC(=O)N([C@H](C)CO)C[C@H]1C | i

Reformatted as tab-separated lines: entries from further up
structure	FGF22 binding
Cc1ccc(S(=O)(=O)N(C)C[C@H]2Oc3c(NC(=O)Nc4c(C)noc4C)cccc3C(=O)N([C@@H](C)CO)C[C@@H]2C)cc1	i
COc1ccc(NC(=O)Nc2ccc3c(c2)CC(=O)N([C@H](C)CO)C[C@@H](C)[C@@H](CN(C)Cc2ccc(Oc4ccccc4)cc2)O3)cc1	i

Next section.
SMILES | FGF22 binding
Cc1ccc(S(=O)(=O)Nc2ccc3c(c2)C(=O)N([C@@H](C)CO)C[C@@H](C)[C@@H](CN(C)Cc2ccc(C(F)(F)F)cc2)OCCCC[C@@H](C)O3)cc1 | i
CC(C)NC(=O)N(C)C[C@H]1Oc2c(NC(=O)CCCCCC(=O)Nc3ccccc3N)cccc2C(=O)N([C@H](C)CO)C[C@@H]1C | i
O=C(C[C@H]1C[C@H]2c3cc(NC(=O)C4CCC4)ccc3O[C@H]2[C@H](CO)O1)NCc1ccc2c(c1)OCO2 | i
C[C@H](CO)N1C[C@H](C)[C@@H](CN(C)S(C)(=O)=O)OCc2cn(nn2)CCCC1=O | i
C[C@@H]1CN([C@H](C)CO)S(=O)(=O)c2ccc(C#Cc3cccc(F)c3)cc2O[C@H]1CN(C)C(=O)NC1CCCCC1 | i
O=C(CN1CCOCC1)NCC[C@H]1CC[C@H](NS(=O)(=O)c2ccc(F)cc2)[C@H](CO)O1 | i
C[C@H](CO)N1C[C@H](C)[C@@H](CN(C)S(=O)(=O)c2ccc(Cl)cc2)Oc2ccc(NS(=O)(=O)c3cccs3)cc2C1=O | i
CN1[C@H](CO)[C@@H]2c3ccccc3N(C(=O)C3CCOCC3)C[C@@H]21 | i
C[C@@H]1CN([C@@H](C)CO)C(=O)c2cccc(NS(=O)(=O)c3ccccc3)c2O[C@@H]1CN(C)Cc1ccc(Oc2ccccc2)cc1 | i
CO[C@@H]1CN(C)C(=O)c2cc(NC(=O)C3CCC3)ccc2OC[C@H](C)N(Cc2cccnc2)C[C@@H]1C | i
CCCNC(=O)Nc1ccc2c(c1)OC[C@@H](C)N(Cc1ccncc1)C[C@@H](C)[C@@H](OC)CN(C)C2=O | i
COc1ccc(NC(=O)Nc2cccc3c2O[C@@H](CN(C)C(=O)Nc2ccc(C(F)(F)F)cc2)[C@H](C)CN([C@H](C)CO)C3=O)cc1 | i
COc1ccc2c3c(n(C)c2c1)[C@@H](CO)N(C(C)=O)CC31CCN(Cc2nccs2)CC1 | i
COc1ccc(NC(=O)N(C)C[C@H]2OCCCC[C@H](C)Oc3ccc(NS(=O)(=O)c4c(C)noc4C)cc3C(=O)N([C@@H](C)CO)C[C@@H]2C)cc1 | i
O=C(Nc1ccc(F)cc1)N1CC(=O)N2[C@H](CO)[C@H](c3ccc(C4=CCCC4)cc3)[C@H]2C1 | i
O=C(C[C@H]1CC[C@@H]2[C@H](COC[C@@H](O)CN2Cc2cccc(C(F)(F)F)c2)O1)NCc1ccc(F)cc1 | i
COc1ccc(NC(=O)Nc2ccc3c(c2)C(=O)N([C@H](C)CO)C[C@H](C)[C@@H](CN(C)Cc2ccc(Oc4ccccc4)cc2)O3)cc1 | i
C[C@H](CO)N1C[C@H](C)[C@H](CN(C)C(=O)c2ccncc2)OCCCC[C@H](C)Oc2ccc(NS(=O)(=O)c3cccs3)cc2C1=O | i
COc1ccccc1C(=O)Nc1ccc2c(c1)C(=O)N(C)C[C@H](OC)[C@@H](C)CN(C)[C@@H](C)CO2 | i
CO[C@@H]1CN(C)C(=O)c2cc(NC(=O)c3cnccn3)ccc2OC[C@H](C)N(C)C[C@H]1C | i
COc1ccc([Si](C)(C)[C@H]2[C@H](CCn3cc([C@H](O)c4ccccc4)nn3)O[C@@]3(C(=O)N(Cc4cccc(N5CCC5=O)c4)c4ccccc43)[C@@H]2C)cc1 | i
C[C@@H]1CN([C@@H](C)CO)C(=O)c2cc(NC(=O)C3CCCCC3)ccc2O[C@@H](C)CCCCO[C@H]1CN(C)CC1CCCCC1 | i
C[C@@H]1CN([C@H](C)CO)C(=O)c2cc(NS(=O)(=O)c3ccccc3)ccc2O[C@@H](C)CCCCO[C@H]1CN(C)Cc1ccc(Cl)c(Cl)c1 | i
COc1cccc(C(=O)Nc2ccc3c(c2)C(=O)N(C)[C@H]2CC[C@@H](CC(=O)NCc4ccc(F)cc4)O[C@@H]2CO3)c1 | i
CO[C@H]1CN(C)C(=O)c2ccc(NC(=O)c3nc4ccccc4s3)cc2OC[C@@H](C)N(Cc2ccncc2)C[C@@H]1C | i

In the list so far, two contain a COOH group:
SMILES | FGF22 binding
COc1ccc(S(=O)(=O)Nc2ccc3c(c2)CC(=O)N([C@H](C)CO)C[C@@H](C)[C@H](CN(C)Cc2ccc(C(=O)O)cc2)O3)cc1 | i
COc1ccc(NC(=O)Nc2ccc3c(c2)CC(=O)N([C@@H](C)CO)C[C@@H](C)[C@H](CN(C)Cc2ccc(C(=O)O)cc2)O3)cc1 | i

Carrying on.
SMILES | FGF22 binding
CC(C)c1cn(CC[C@H]2CC[C@@H](NS(=O)(=O)Cc3ccccc3)[C@@H](CO)O2)nn1 | i
COc1ccc2c3c(n(C)c2c1)[C@H](CO)N(C(=O)Nc1ccc(F)cc1)CC31CCN(S(=O)(=O)c2cn(C)cn2)CC1 | i
CN1CCN(C(=O)c2cc3c(c(-c4cccc(-c5ccccc5F)c4)n2)[C@H](CCO)N([S@@](=O)C(C)(C)C)C3)CC1 | i
O=C(N[C@H]1CC[C@H](CCNS(=O)(=O)c2cccc(Cl)c2)O[C@H]1CO)c1ccccc1 | i
C[C@@H]1CN([C@H](C)CO)C(=O)c2cc(-c3ccncc3)cnc2O[C@H]1CN(C)C(=O)Cc1ccccn1 | i
CO[C@@H]1CN(C)C(=O)c2ccc(NC(C)=O)cc2OC[C@H](C)N(C(=O)c2ccccn2)C[C@@H]1C | i

4 of the compounds above, in CSV form.
SMILES,FGF22 binding
COc1ccc2c3c(n(C)c2c1)[C@H](CO)N(C(=O)Nc1ccc(F)cc1)CC31CCN(S(=O)(=O)c2cn(C)cn2)CC1,i
CN1CCN(C(=O)c2cc3c(c(-c4cccc(-c5ccccc5F)c4)n2)[C@H](CCO)N([S@@](=O)C(C)(C)C)C3)CC1,i
O=C(N[C@H]1CC[C@H](CCNS(=O)(=O)c2cccc(Cl)c2)O[C@H]1CO)c1ccccc1,i
C[C@@H]1CN([C@H](C)CO)C(=O)c2cc(-c3ccncc3)cnc2O[C@H]1CN(C)C(=O)Cc1ccccn1,i
